# TRHR ag: qHTS for Small Molecule Agonists and Allosteric Enhancers of Human TRH Receptor: Primary Screen for Agonists. TRHR cells, calcium flux fluo-8, FDSS agonist mode. activation, % at 2 µM. hit rate 0.18% among 360,000. Thyrotropin-releasing hormone receptor (Homo sapiens), P34981; in the data active = activation above about 30%; note: 0% is about no effect
# Target sequence (P34981 whole entry, looked up): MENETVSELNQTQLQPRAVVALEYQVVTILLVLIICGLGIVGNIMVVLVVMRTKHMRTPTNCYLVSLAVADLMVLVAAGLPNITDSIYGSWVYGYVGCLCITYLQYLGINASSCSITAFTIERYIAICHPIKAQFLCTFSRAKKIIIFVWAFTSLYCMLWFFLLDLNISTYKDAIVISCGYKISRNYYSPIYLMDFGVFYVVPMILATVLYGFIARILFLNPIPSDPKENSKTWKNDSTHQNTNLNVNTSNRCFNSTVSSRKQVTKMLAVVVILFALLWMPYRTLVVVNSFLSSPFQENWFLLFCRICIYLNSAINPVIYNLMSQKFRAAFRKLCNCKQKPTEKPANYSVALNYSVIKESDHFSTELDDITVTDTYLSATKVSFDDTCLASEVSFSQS
#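 Read-out: compound-evoked intracellular calcium rise in TRHR cells, fluo-8 dye, kinetic FDSS fluorescence at 1 s/cycle following a 10-cycle baseline. Cells cultured overnight before dye loading (30 min–1.5 h, RT).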
# TRHR enhancer: qHTS for Small Molecule Agonists and Allosteric Enhancers of Human TRH Receptor: Primary Screen for Enhancers. Thyrotropin-releasing hormone receptor (Homo sapiens), P34981. TRHR cells, fluo-8 calcium fluorescence, EC20 TRH enhancement. enhancement, % at 2 µM. hit rate 0.66% among 360,000; in the data active = enhancement above about 30%; note: 0% is about no effect
#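 TRHR-expressing cells loaded with fluo-8 calcium dye were read kinetically (ex 480/em 530) during compound addition, then stimulated with an EC20 of TRH (10 nM final). Enhancement of the Gq-mediated intracellular calcium response was scored.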
# Anesthetic bind: qHTS Assay for Identification of Novel General Anesthetics; Ferritin light chain (Equus caballus), P02791; apoferritin/1-aminoanthracene competitive binding, fluorescence; Potency, µM (highest dose often 77.5 µM), inactives show top-dose activity change, negative = displacement, hits mostly inhibitors; hit rate 0.074% among 350,000; note: potency is the fitted concentration of half-maximal effect; % is set by controls: 0 for no effect and ±100 for the full control effect; nearly all actives have a fitted effect of over 20% in size
# Target sequence (P02791 2-175 limits assumed): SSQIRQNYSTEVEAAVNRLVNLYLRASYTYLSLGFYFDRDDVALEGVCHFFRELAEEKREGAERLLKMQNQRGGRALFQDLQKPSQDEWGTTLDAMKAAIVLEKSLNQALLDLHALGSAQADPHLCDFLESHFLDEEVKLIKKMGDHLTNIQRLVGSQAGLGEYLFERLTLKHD
#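 10 uM apoferritin + 50% sat. 1-AMA, PBS; cpd 10 min RT; Ex380/Em535 endpoint; normalized to free probe vs complex; 4-param Hill fit; propofol titration as pos. ctrl.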
# RXFP1 antag: qHTS Assay for Antagonists of the Relaxin Receptor RXFP1 | HEK293-RXFP1, relaxin-stimulated cAMP HTRF, 30 min; hits give low values | hit rate 0.59% among 350,000 | Relaxin receptor 1 (Homo sapiens), Q9HBX9 | AID 1259400, 2018 | activity change, negative = inhibition, % at 57.5 µM;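 active = activity change of -60% or lower, but not beyond a set lower limit; inconclusive = change between -60% and -40%, or beyond the set limit; inactive = change above -40%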; note: % is set by controls: 0 for no effect and ±100 for the full control effect
# RXFP1 ag: qHTS Assay for Agonists of the Relaxin Receptor RXFP1. Relaxin receptor 1 (Homo sapiens), Q9HBX9. HEK293T-RXFP1 cAMP TR-FRET, 30 min; response scale: percent of porcine relaxin response, buffer zero. hit rate 0.3% among 370,000. Potency, µM (highest dose often 57.5 µM), without a hit: at the top dose activation, usual class: activators; note: potency is the fitted concentration of half-maximal effect; % is set by controls: 0 for no effect and ±100 for the full control effect; nearly all actives have a fitted effect of over 60% in size; many of its hits are not listed in these tables
#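 Agonist response is measured as cAMP accumulation in an RXFP1-transfected HEK293T line under PDE4 inhibition. Values are scaled between buffer-only and 29 nM porcine relaxin, and EC50s come from standard Hill equation fits.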
# D2 potentiator: HTS Assay for Positive Allosteric Modulators of the Human D2 Dopamine Receptor: Primary Screen for Potentiators; HEK293 T-REx D2, calcium flux, EC20 dopamine potentiation; D(2) dopamine receptor (Homo sapiens), P14416; potentiation, % at 10 µM; hit rate 0.34% among 340,000;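 active = potentiation over 3 SD above the plate norm, cut at about 30% in these data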; note: 0% is about no effect
#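 Potentiation of an EC20 dopamine calcium response measured kinetically over 180 s, after a preceding 180 s compound-only read flagging agonists. Cells: inducible Hek293 Trex D2 line, 4000/well, cultured overnight at 30 C before dye loading.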
# * hit, by the source's call; ? = inconclusive; nt = no result given; & = joins results of further samples; [ ] = remark or other dose. Unless noted, calls come from the whole dose curve; as a rule, active = well fitted curve in the direction sought with a large enough effect; inconclusive = small, poorly fitted or top-dose-only effect, or another doubt; inactive = no such curve, though single readings can be large; an effect the other way counts as inactive or inconclusive. The list is partial; rates above refer to the full screens.
# Screens in order – TRHR ag | TRHR enhancer | Anesthetic bind | RXFP1 antag | RXFP1 ag | D2 potentiator
(1) OC(CCN1CCCCC1)(c1ccccc1)C1C[C@@H]2C=C[C@H]1C2 (stereo partly specified)
→ -0.5 | -10 | nt | nt | 0.6% | -1
(2) Cn1cnc([N+](=O)[O-])c1Sc1ncnc2nc[nH]c12
→ -1.4 | 0 | 48%[activator] | -9&-3&18 | 5.0% | nt
(3) O=c1[nH]c(=O)n([C@H]2C[C@H](O)[C@@H](CO)O2)cc1C(F)(F)F
→ 0.4 | 9 | 4% | 16 | -0.9% | -12
(4) CCCCC[C@H](O)/C=C\[C@H]1[C@H](C/C=C\CCCC(=O)O)[C@@H](O)C[C@H]1O (tested in a mixture with another compound)
→ nt | nt | 3%[29.3 µM] | nt | nt | nt
(5) Nc1c2c(nc3ccccc13)CCCC2
→ 0.8&0.4 | 0&-6 | -3% | 10 | 0.5%&1.2% | 0&3
(6) CC(=O)OC1C(=O)[C@@]2(C)C(O)CC3OC[C@]3(OC(C)=O)C2C(OC(=O)c2ccccc2)[C@]2(O)CC(OC(=O)C(O)C(NC(=O)c3ccccc3)c3ccccc3)C(C)=C1C2(C)C (stereo partly specified)
→ nt | nt | -1% | nt | nt | nt
(7) C[C@H](O)Cn1cnc2c1c(=O)n(C)c(=O)n2C
→ nt | nt | 3%[29.3 µM] | nt | nt | nt
(8) CCOc1ccc(NC(C)=O)cc1
→ -0.1 | -6 | -6% | 13 | 0.5% | -1
(9) C=CC[N@@+]12CC[C@]34c5ccccc5N5/C=C6\C7N(/C=C(\C53)[C@@H](C[C@@H]41)/C(=C/CO)C2)c1ccccc1[C@@]71CC[N@@+]2(CC=C)C/C(=C\CO)[C@@H]6C[C@@H]12 (stereo partly specified)
→ 0.5 | -2 | nt | nt | -3.2% | 4
(10) CC(O)Cn1cnc2c1c(=O)n(C)c(=O)n2C (stereo unspecified)
→ 0.2 | 20 | -3% | -4 | 16% | -5
(11) C[C@H]1CS(=O)(=O)CCN1/N=C\c1ccc([N+](=O)[O-])o1
→ nt | nt | -2%[29.3 µM] | nt | nt | nt
(12) O=C(O)Cc1ccc(-c2ccccc2)cc1
→ 0.5 | -7 | -3% | -32 | -0.2% | -5
(13) CC/C(=C(/CC)c1ccc(O)cc1)c1ccc(O)cc1
→ 0.3 | -13 | ? | -19 | -3.5% | -20
(14) CC(=O)O[C@H]1C[C@@]2(C)[C@H](C[C@@H](O)[C@H]3[C@@]4(C)CC[C@@H](O)[C@@H](C)[C@H]4CC[C@@]32C)C1=C(CCC=C(C)C)C(=O)O
→ nt | nt | -1%[29.3 µM] | nt | nt | nt
(15) CO/N=C(\C(=O)N[C@@H]1C(=O)N2C(C(=O)O)=C(COC(C)=O)CS[C@H]12)c1csc(N)n1 (stereo in doubt)
→ 0.0 | -5 | -2% | nt | 2.3% | 14
(16) CC1(C)S[C@@H]2[C@H](NC(=O)Cc3ccccc3)C(=O)N2[C@H]1C(=O)O
→ 0.6&0.6 | 4&-3 | -6% | -4 | -1.9%&-0.2% | 6&-4
(17) OC(CCN1CCCC1)(c1ccccc1)C1CCCCC1 (stereo unspecified)
→ 0.4 | 3 | -6%&-7% | 7 | 1.4% | -16
(18) Cc1cccc(C)c1NC(=O)CN1CCN(CCCC(c2ccc(F)cc2)c2ccc(F)cc2)CC1
→ 0.8 | 0 | -10%[29.3 µM] | 8 | 0.8% | -24
(19) COC(=O)C1C(O)CC[C@@H]2CN3CCc4c([nH]c5ccccc45)C3C[C@@H]12 (stereo partly specified)
→ nt | nt | 0%&4% | nt | nt | nt
(20) CC/C(=C(\c1ccccc1)c1ccc(OCCN(C)C)cc1)c1ccccc1
→ -0.6&-0.8 | -2&-1 | ? | ? | 0.0%&0.9% | -5&14
(21) COc1ccccc1OCC(O)CO (stereo unspecified)
→ -0.5 | 5 | 7%&0% | -5 | -0.3% | -6
(22) CC12CCC3c4ccc(O)cc4CCC3C1CCC2=O (stereo unspecified)
→ -0.7 | -5 | nt | nt | 0.4% | -19
(23) COc1ccc2c(c1OC)C(=O)O[C@@H]2[C@H]1c2c(cc3c(c2OC)OCO3)CCN1C
→ 0.3 | 0 | -7% | 10 | 1.9% | 3
(24) CC1CS(=O)(=O)CCN1N=Cc1ccc([N+](=O)[O-])o1 (stereo unspecified)
→ 0.4 | 4 | nt | nt | -1.0% | 6
(25) CC(C)NCC(O)COc1cccc2[nH]ccc12 (stereo unspecified)
→ 0.4 | 0 | -2% | 24 | 0.0% | -4
(26) CC(C)NC[C@H](O)c1ccc(NS(C)(=O)=O)cc1
→ nt | nt | 33%[activator][29.3 µM] | nt | nt | nt
(27) Clc1ccc2c(c1)C(N1CCNCC1)=Nc1ccccc1O2
→ 0.5 | 8 | -3% | 11 | -0.4% | -33
(28) CN1CCN2c3ncccc3Cc3ccccc3[C@@H]2C1
→ -0.4 | 17 | 6% | nt | 1.1% | -22
(29) CC(C(=O)O)c1cccc(C(=O)c2ccccc2)c1 (stereo unspecified)
→ -0.2&0.1 | -5&-1 | -2%&-11% | -31 | 0.6%&0.9% | -3&17
(30) CC(=O)Nc1nnc(S(N)(=O)=O)s1
→ -0.6 | -4 | -8% | -9 | 1.7% | nt
(31) COc1cc(Cc2cnc(N)nc2N)cc(OC)c1OC
→ 1.0&-0.8 | 5&-5 | 1% | 19 | 1.5%&6.5% | 7&-1
(32) CCCNC(C)(C)COC(=O)c1ccccc1
→ 0.8 | -6 | 4%[29.3 µM] | 16 | -0.9% | -9
(33) Cc1cccc(CN2CCN([C@@H](c3ccccc3)c3ccc(Cl)cc3)CC2)c1
→ nt | nt | -5%[29.3 µM] | nt | nt | nt
(34) COc1ccc(NS(=O)(=O)c2ccc(N)cc2)nn1
→ 0.4&-1.3 | -3&5 | -3% | -10 | 0.5%&0.7% | 9&1
(35) CCCC(=O)Nc1ncnc2c1ncn2[C@@H]1O[C@H]2COP(=O)(O)O[C@@H]2[C@@H]1OC(=O)CCC
→ nt | nt | -10%[29.3 µM] | nt | nt | nt
(36) OCC1O[C@H](OC2C(CO)O[C@@](O)(CO)C2O)C(O)C(O)C1O (stereo partly specified)
→ nt | nt | 0% | nt | nt | nt
(37) Cc1ncc(C[n+]2csc(CCO)c2C)c(N)n1
→ 0.8&-0.5 | 3&22 | -5% | nt | -1.3%&-1.2% | -13&1
(38) CC#C[C@@]1(O)CC[C@H]2[C@@H]3CCC4=CC(=O)CCC4=C3[C@H](c3ccc(N(C)C)cc3)C[C@]21C
→ nt | nt | 7%[29.3 µM] | nt | nt | nt
(39) O=C(O)c1cccnc1
→ -0.6 | 2 | -2% | 10 | 3.8% | 2

# Three compounds picked at random from those above:
# Screens in order – TRHR ag | TRHR enhancer | Anesthetic bind | RXFP1 antag | RXFP1 ag | D2 potentiator
(31) COc1cc(Cc2cnc(N)nc2N)cc(OC)c1OC
→ 1.0&-0.8 | 5&-5 | 1% | 19 | 1.5%&6.5% | 7&-1
(37) Cc1ncc(C[n+]2csc(CCO)c2C)c(N)n1
→ 0.8&-0.5 | 3&22 | -5% | nt | -1.3%&-1.2% | -13&1
(36) OCC1O[C@H](OC2C(CO)O[C@@](O)(CO)C2O)C(O)C(O)C1O (stereo partly specified)
→ nt | nt | 0% | nt | nt | nt

# Only Anesthetic bind, TRHR enhancer and D2 potentiator (seven entries from above):
nr | compound | Anesthetic bind | TRHR enhancer | D2 potentiator
33 | Cc1cccc(CN2CCN([C@@H](c3ccccc3)c3ccc(Cl)cc3)CC2)c1 | -5%[29.3 µM] | nt | nt
34 | COc1ccc(NS(=O)(=O)c2ccc(N)cc2)nn1 | -3% | -3&5 | 9&1
35 | CCCC(=O)Nc1ncnc2c1ncn2[C@@H]1O[C@H]2COP(=O)(O)O[C@@H]2[C@@H]1OC(=O)CCC | -10%[29.3 µM] | nt | nt
36 | OCC1O[C@H](OC2C(CO)O[C@@](O)(CO)C2O)C(O)C(O)C1O (stereo partly specified) | 0% | nt | nt
37 | Cc1ncc(C[n+]2csc(CCO)c2C)c(N)n1 | -5% | 3&22 | -13&1
38 | CC#C[C@@]1(O)CC[C@H]2[C@@H]3CCC4=CC(=O)CCC4=C3[C@H](c3ccc(N(C)C)cc3)C[C@]21C | 7%[29.3 µM] | nt | nt
39 | O=C(O)c1cccnc1 | -2% | 2 | 2

# High-throughput results (PubChem BioAssay)
